Screens (PubChem)
FEN1 inh – qHTS Assay for the Inhibitors of Human Flap endonuclease 1 (FEN1); Recombinant FEN1 flap cleavage, fluorescence, 15 min; Potency, µM (doses to about 114 µM), without a hit: top-dose activity change, negative = inhibition, actives largely listed as inhibitors; 390,000 compounds, 0.35% hits; also: nearly all actives have a fitted effect of over 65% in size
Target sequence (P39748 whole entry, looked up): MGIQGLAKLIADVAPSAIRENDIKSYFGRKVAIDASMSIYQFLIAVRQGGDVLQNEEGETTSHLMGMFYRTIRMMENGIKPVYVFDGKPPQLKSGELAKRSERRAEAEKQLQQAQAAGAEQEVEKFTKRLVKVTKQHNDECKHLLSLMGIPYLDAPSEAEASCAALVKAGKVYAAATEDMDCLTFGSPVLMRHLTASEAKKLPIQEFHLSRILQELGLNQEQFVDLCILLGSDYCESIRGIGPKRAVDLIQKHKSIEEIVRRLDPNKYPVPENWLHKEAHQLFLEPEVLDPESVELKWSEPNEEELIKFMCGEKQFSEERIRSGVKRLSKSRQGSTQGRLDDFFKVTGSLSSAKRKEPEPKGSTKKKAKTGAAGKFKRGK
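Enzyme 10 nM, 15 min RT preincubation with compound; start with substrate 50 nM final; reads at 0 and 15 min; qHTS titration, four-parameter Hill fit.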
N370S GC mod – qHTS Assay for Inhibitors and Activators of N370S glucocerebrosidase as a Potential Chaperone Treatment of Gaucher Disease; Lysosomal acid glucosylceramidase (Homo sapiens), P04062; N370S GC spleen homogenate, 4MU-glucoside fluorescence; Potency, µM (highest dose often 59.4 µM), inactives show at the highest dose activity change, negative = inhibition, usual class: inhibitors; 330,000 compounds, 0.092% hits;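 also: 0% = full enzyme activity and -100% = no enzyme basal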
Starred values were filed as active, the others as inactive; ? = inconclusive; . = no result given; & = joins results of further samples; [ ] = another dose, or the depositor's remark. Calls follow the shape of the dose curve; as a rule, active = well fitted curve in the direction sought with a large enough effect; inconclusive = small, poorly fitted or top-dose-only effect, or another doubt; inactive = no such curve, though single readings can be large; an effect the other way counts as inactive or inconclusive. Unless noted, % is scaled to controls: 0 for no effect and ±100 for the full control effect; potency is read from the fitted curve at half-maximal effect. This is a subset; most or all hits stand in other tables.

SMILES	FEN1 inh	N370S GC mod
Cc1cc(C)n(-c2cccc(Cl)c2C#N)n1	9%	-4%
COc1ccc(NC(=O)CC2C(=O)N(C)C(=S)N2CCc2ccccc2F)cc1 (centres undefined)	-6%	-6%
COc1ccccc1C(=O)Nc1nnc(-c2ccc(F)cc2)s1	1%	1%
C=CCOC(=O)C1=C(C)NC(=O)NC1c1ccc2c(c1)OCO2 (centres undefined)	17%	1%
CC(=O)N1CCc2c(sc(NC(=O)CCS(=O)(=O)c3ccccc3)c2C(N)=O)C1	17%	4%
Cc1cccc(C)c1Nc1oc(-c2ccccc2)nc1-c1ccccc1F	.	3%
Cn1nc(C(=O)N2CCN(c3ccc([N+](=O)[O-])cc3)CC2)c2c1-c1ccccc1S(=O)(=O)C2	-2%	-1%
CCOc1ccc(N(CC(=O)N2CCN(c3ccccc3)CC2)S(=O)(=O)c2c(C)noc2C)cc1	-7%	-3%
O=C(Nc1ccncc1)c1ccccc1-c1ccccc1	2%	-2%
Cc1ccc(-n2ncc3c2CCCC3NC(=O)CCc2cnccn2)cc1C (centres undefined)	0%	-3%
CCN(CC(=O)Nc1ccccc1C(F)(F)F)C(=O)c1cc(-c2ccccc2)nn1-c1ccccc1	-2%	3%
COc1cc2[nH]c(=O)n(Cc3ccc(C(=O)N4CCN(c5cccc(C)c5C)CC4)cc3)c(=O)c2cc1OC	7%	.
CC(=O)Nc1ccc(C(=O)OCC(=O)Nc2ccccc2F)cc1	-4%	1%
CCc1ccc(-n2nc(CO)c(C(=O)NCc3ccccc3Cl)n2)cc1	-15%	.
CCOC(=O)Cc1csc(NC(=O)Nc2cccc(OC)c2)n1	3%	27%
COc1ccc(/C=C/c2cc(OC)cc(=O)o2)cc1	.	-2%&-1%
Cc1ccc(C(=O)C2=C(O)C(=O)N(CCN3CCOCC3)C2c2ccccn2)o1 (centres undefined)	.	-4%
C[C@H]1CN([C@@H](C)CO)C(=O)c2cccc(NC(=O)C3CC3)c2O[C@H]1CN(C)CC1CCCCC1	21%	.
Cc1oc(-c2ccc(-c3ccccc3)cc2)nc1CN(C)C1CCOC1 (centres undefined)	-10%	-20%
Nc1c(Cl)ncnc1N/N=C/c1ccc2ccccc2n1	?	-3%
S=c1nc[nH]c2c1sc1nc(-c3ccccc3)c3c(c12)CCCC3	3%	16%
CCS(=O)(=O)c1nc(S(=O)(=O)c2ccc(Cl)cc2)c(NCCCN2CCOCC2)s1	-7%	-7%
CCOC(=O)CNC(=O)COc1coc(CN2CCN(c3ccccc3)CC2)cc1=O	0%	-3%
COc1ccc(Cn2c(O)c(C=Nc3ccc(O)cc3)c3ccccc3c2=O)cc1	6%	?
Cc1[nH]c2ccccc2c1NC(=O)CN1CCN(C(=O)c2ccco2)CC1	0%	7%
Cc1occc1C(=O)N/N=C/C=C/c1ccccc1	17%	4%
CCOC(=O)c1cccc(P(C)(C)=O)c1	-4%	8%
c1ccc(-n2c(SCc3ccncc3)nnc2-c2ccco2)cc1	-4%	16%
COC(=O)Cc1[nH]nc2c1C1(CCSCC1)C(C#N)=C(N)O2	-3%	-8%
Cc1cc2c(cc1C)N(CC(=O)N1CCCC1)C(=O)CC(c1ccccc1)=N2	2%	1%

Two compounds drawn at random from those above:
SMILES	FEN1 inh	N370S GC mod
S=c1nc[nH]c2c1sc1nc(-c3ccccc3)c3c(c12)CCCC3	3%	16%
COc1ccc(Cn2c(O)c(C=Nc3ccc(O)cc3)c3ccccc3c2=O)cc1	6%	?

Further structures:
SMILES	FEN1 inh	N370S GC mod
Cc1ccc(C)c(N(C)C(=O)c2cc3c(s2)-c2ccccc2OC3)c1	-8%	.
O=C(COc1ccccc1Cc1ccccc1)Nc1cccnc1	-3%	.
Cc1cc(Cl)ccc1OCCCC(=O)NCc1ccccn1	-1%	-5%
CCn1ccc(C(=O)N2CCOCC2)n1	16%	-6%
O=C(Nc1cccc2cccnc12)c1ccc2c(c1)OCCO2	-22%	?
C=CCN(C(=O)CNS(=O)(=O)c1ccccc1)C(C(=O)NCCOC)c1cccnc1 (centres undefined)	54%[activator]	-9%
N#Cc1c(-n2ccnc2)cccc1-n1ccnc1	-16%	23%
COc1ccccc1[C@@H]1C(c2cccc(C)c2)=NN(c2ccc(Br)cc2)[C@H]1C(=O)N1CCOC1=O	-10%	?
COc1ccc(-n2nc(C(=O)Nc3ccc(C(C)=O)cc3)nc2-c2ccccc2)cc1	0%	.
O=C(CSc1nc(-c2ccccc2)cc(C(F)(F)F)n1)c1cccc([N+](=O)[O-])c1	-6%	8%
O=C(NC1CCS(=O)(=O)C1)c1cccc(S(=O)(=O)N2CCCCCC2)c1 (centres undefined)	-15%	-3%
Cc1ccc2nc(-c3ccc(Cl)c(NC(=O)c4ccc(Br)o4)c3)oc2c1	-2%	.
CC(=O)N=C1SC2CS(=O)(=O)CC2N1Cc1ccc(C)cc1 (centres undefined)	1%	0%
COCc1cc([C@@H]2C[C@H]3CN(c4ccccc4)C(=O)[C@]34CCCN24)ccc1OC	16%	-7%
Cn1c(/C=C/N2CCOCC2)c(C(=O)c2ccc(Br)cc2)c(=O)n(C)c1=O	1%	-3%
CCOc1cccc(CN(C)CC2CCCN(CCc3ccc(Cl)cc3)C2)c1O (centres undefined)	0%	-20%
O=[N+]([O-])/C=C/c1cn(Cc2ccc(F)cc2)c2ccccc12	-9%	?
C/C(NCCN1CCOCC1)=C(\C#N)C(N)=O	8%	-6%
O=C(NC(Cc1ccccc1)C(=O)O)/C(=C/c1ccco1)NC(=O)c1cccc(Br)c1 (centres undefined)	-4%	-7%
O=C(Nc1ncc(Cc2cc(Cl)ccc2Cl)s1)c1ccc([N+](=O)[O-])cc1	-2%	5%
COC(=O)C1=C(C)NC(=S)NC1/C=C/c1ccccc1 (centres undefined)	13%	10%
N#Cc1ccc(Cl)cc1NC(=O)COC(=O)c1cccc(S(=O)(=O)N2CCOCC2)c1	3%	.
CCOC(=O)c1cc(-c2ccc(C)cc2)n(CC(=O)Nc2ccccc2F)c1C	5%	.
Cc1cccc(N2CCN(C(=O)C3CCC(=O)N(Cc4ccccc4F)C3)CC2)c1C (centres undefined)	5%	-6%
CCc1ccc([C@@H]2C[C@H]3CN(Cc4ccccc4OC)C(=O)[C@]34CCCN24)cc1	4%	-2%
O=S(=O)(c1ccccc1)N1CCN(S(=O)(=O)c2ccccc2)C1	2%	6%
CCCCn1cc(C(=O)c2cc(Br)ccc2O)cc(C#N)c1=O	-8%	-22%
Cc1ccc(S(=O)(=O)NC(=O)COc2ccc(Cl)cc2Cl)cc1	-11%	-6%
COc1ccc(C2C(C(=O)c3ccco3)=C(O)C(=O)N2CC2CCCO2)cc1 (centres undefined)	-8%	0%
CCN=C(NCC)SC1CC(=O)N(c2ccc(OC)cc2)C1=O (centres undefined)	-14%	3%
CCOC(=O)C1=C(CN2CCN(c3ccc(Cl)cc3)CC2)NC(=O)NC1c1ccc(F)cc1 (centres undefined)	8%	.
CCOC(=O)c1cc(-c2nnc(-c3ccc(Oc4ccccc4)cc3)o2)c(C)nc1C	-3%	1%
CCCOc1cccc(C(=O)Nc2nnn(CCC)n2)c1	-3%	5%
COc1ccc(C(=O)Nc2nc3ccc(S(=O)(=O)N4CCCC4)cc3s2)cc1	-4%	.
COc1ccc(C(C(=O)NC(C)(C)C)N(CCc2ccccc2)C(=O)CCC(=O)Nc2cc(C)on2)cc1 (centres undefined)	-9%	-20%
CCc1cccc(C)c1NC(=S)NCc1ccccc1	-2%	0%
CC(=O)Nc1sc2c(c1C(c1cccs1)N1CCOCC1)CCCC2 (centres undefined)	-17%	4%
O=c1[nH]c(=O)n(C2C[C@H](O)[C@@H](CO)O2)cc1C(F)(F)F (some centres undefined)	-10%	1%
CC(=O)NC(Cc1cc(C)ccc1C)C(=O)N1CCN(C(=O)c2ccc(Br)cc2)CC1 (centres undefined)	-9%	-14%
CC1=CC2=NC(=O)/C(=C\c3cccn3CCOc3cc(C)cc(C)c3)C(=N)N2O1	-2%	7%
CCOC(=O)c1c(SCC(=O)Nc2nc3ccccc3s2)nc(=O)[nH]c1C	-1%	.
O=C(CCS(=O)(=O)c1ccccc1)N1CCN(c2cccc(C(F)(F)F)c2)CC1	10%	6%
O=C(Cn1cc2c(n1)CCCC2)NCCc1ccccc1	-6%	4%
O=C(O)c1cc(N/N=C/C(Cl)=C/c2ccccc2)ccc1Cl	-1%	-4%
O=C(NCc1cccnc1)c1ccc(CN2CCc3ccccc3C2)cc1	-4%	13%
O=C(CSc1ncn[nH]1)N1N=C(c2ccc(Cl)cc2)CC1c1ccco1 (centres undefined)	-2%	2%
Cc1cccc(C)c1N1C(=O)C2ON(c3ccccc3)C(c3ccncc3)C2C1=O (centres undefined)	0%	-22%
N/C(CSc1ncccc1C(F)(F)F)=N\O	-4%	2%
CCOc1ccc(C(CCc2ccccc2)NC(=O)c2ccccc2)cc1OCC (centres undefined)	-12%	25%
Cc1ccc(S(=O)(=O)/N=S(/C)c2ccccc2)cc1 (centres undefined)	-4%	16%
New compounds follow.
SMILES	FEN1 inh	N370S GC mod
COc1ccc(C(=O)CC(CC(=O)c2ccc(OC)cc2)C(=O)O)cc1	-1%	2%
Cc1ccc(CSc2nnc(CS(=O)Cc3ccc(Cl)cc3Cl)n2C)cc1 (centres undefined)	7%	-8%
O=C(CCc1n[nH]c(=O)[nH]c1=O)N/N=C/c1ccc(Br)o1	12%	-1%
CCOc1ccc(NC(=O)Nc2ccccc2C(N)=O)cc1	14%	15%
CCO[C@H]1OC(C(=O)O)=C[C@@H](c2coc3ccccc3c2=O)[C@@H]1CCCO	-4%	.
CN(C)/C=C/C(=O)c1ccccc1	4%	11%
COc1ccc(OCC(O)CN(C)C(=O)/C=C/c2cccc([N+](=O)[O-])c2)cc1 (centres undefined)	-3%	-7%
COc1cccc(NC(=O)Nc2ccc3c(c2)nc(C)n3C)c1	-11%	-1%
O=C1CCCCCN1CSc1nc2ccccc2s1	-9%	7%
CC1(C)Cc2c(ccc3ccccc23)/C(=C/C#N)N1	-15%	-1%

Part of the list above in order of heavy-atom count, high to low:
SMILES	FEN1 inh	N370S GC mod
COc1cc2[nH]c(=O)n(Cc3ccc(C(=O)N4CCN(c5cccc(C)c5C)CC4)cc3)c(=O)c2cc1OC	7%	.
CC(=O)NC(Cc1cc(C)ccc1C)C(=O)N1CCN(C(=O)c2ccc(Br)cc2)CC1 (centres undefined)	-9%	-14%
CCc1ccc([C@@H]2C[C@H]3CN(Cc4ccccc4OC)C(=O)[C@]34CCCN24)cc1	4%	-2%
Cc1ccc(-n2ncc3c2CCCC3NC(=O)CCc2cnccn2)cc1C (centres undefined)	0%	-3%
COc1ccc(C(=O)CC(CC(=O)c2ccc(OC)cc2)C(=O)O)cc1	-1%	2%
Cc1ccc(S(=O)(=O)NC(=O)COc2ccc(Cl)cc2Cl)cc1	-11%	-6%

Further results
SMILES	FEN1 inh	N370S GC mod
COc1ccccc1N1CCN(C(=O)c2ccc(Br)s2)CC1	5%	-6%
COCCn1c(SCC(=O)c2c(N)n(C3CC3)c(=O)[nH]c2=O)nnc1-c1ccc(Cl)cc1	-11%	.
Cn1c(=O)c2nc(SCC(=O)Nc3cc(Cl)cc(Cl)c3)n(C)c2n(C)c1=O	19%	.
COc1ccccc1-n1cnnc1SCC(=O)N1CC(=O)Nc2ccccc21	5%	4%
CC(OC(=O)c1ccccc1OCc1ccc(Cl)cc1)C(N)=O (centres undefined)	3%	-1%
Cc1c(Cl)ccc2c(C(N)=O)cc(-c3ccccn3)nc12	0%	13%
COc1ccc(-c2nc(S(=O)(=O)c3ccc(Cl)cc3)c(N3CCCCCC3)o2)cc1	-7%	.
Cc1ccccc1NS(=O)(=O)c1ccc(NC(=O)CSCc2ccc(Br)cc2)cc1	-22%	-4%
COc1ccc(N2CCN(S(=O)(=O)c3c(C)noc3/C=C/N(C)C)CC2)cc1	6%	-10%
CCCCN(C(=O)CNC(=O)c1cccs1)C(C(=O)NC1CCCCC1)c1cccnc1 (centres undefined)	12%	-2%
CC(C)CN(C(=O)COc1ccc(Br)cc1C=O)C1CCS(=O)(=O)C1 (centres undefined)	-3%	-13%
Cc1ccc(C)c(N2CCN(C(=O)CCc3nc(-c4cccc(C(F)(F)F)c4)no3)CC2)c1	-19%	.
Cc1cc(C)c(/C=C/c2onc(C)c2S(=O)(=O)N2CCC(C(=O)Nc3ccc(Cl)cc3C)CC2)c(C)c1	-2%	.
CC(=O)N1C(=O)N(C)C2C1N(C)C(=O)N2C(C)=O (centres undefined)	.	6%
Cc1ccc(N2C(=O)C3N=NN(CC(=O)N4N=C(c5cccc6ccccc56)CC4c4ccccc4)C3C2=O)cc1 (centres undefined)	-3%	1%
CCOc1ccc(Br)cc1S(=O)(=O)NC1CCCC1	-4%	.
CCc1ccc(-c2nc(CN3CCC(C(=O)NCCN(CC)c4ccccc4)CC3)c(C)o2)cc1	0%	-29%
CC(Oc1ccc2c3c(c(=O)oc2c1)CCCC3)C(=O)NC1CC(C)(C)NC(C)(C)C1 (centres undefined)	-3%	0%

Single records (already shown). Order of screens: FEN1 inh	N370S GC mod
COc1ccccc1C(=O)Nc1nnc(-c2ccc(F)cc2)s1 across the screens: 1%	1%
CCOc1cccc(CN(C)CC2CCCN(CCc3ccc(Cl)cc3)C2)c1O (centres undefined) across the screens: 0%	-20%
Cc1cc(C)c(/C=C/c2onc(C)c2S(=O)(=O)N2CCC(C(=O)Nc3ccc(Cl)cc3C)CC2)c(C)c1 across the screens: -2%	.
Cc1occc1C(=O)N/N=C/C=C/c1ccccc1 across the screens: 17%	4%
